Screens from PubChem.
Vaccinia Venus: inhibitors of vaccinia virus (Venus reporter) | Vaccinia virus Venus reporter expression, fluorescence | 0.46% of 330,000 active | Potency, µM (series often up to 36.5 µM), without a hit: top-dose activity change, negative = inhibition, hits mostly inhibitors; active means well fitted inhibition curve with a large enough effect; inconclusive means small, poorly fitted or top-dose-only effect; inactive means no such curve, though single readings can be large or run the other way; tested in A549 cells; note: nearly all actives have a fitted effect of over 30% in size; inactives centre near -10
VACV mCherry inh: inhibitors of vaccinia virus infection (mCherry reporter signal) | 0.63% of 310,000 active | Potency, µM (highest dose often 36.5 µM), for inactives: at the top dose activity change, negative = inhibition, actives largely listed as inhibitors | Vaccinia virus mCherry reporter infection, fluorescence; about a quarter of the inactives have no number | AID 720579; active = well fitted inhibition curve with a large enough effect; inconclusive = small, poorly fitted or top-dose-only effect; inactive = no such curve, though single readings can be large or run the other way; tested in A549 cells; note: nearly all actives have a fitted effect of over 35% in size; inactives centre near -10
* marks the source's active call; other numbers are inactive results; i = inactive; ? = inconclusive; . = no result given; [ ] = dose if it differs, or a comment. % is set by controls: 0 for no effect and ±100 for the full control effect; potency is the fitted concentration of half-maximal effect. No enrichment for hits, and some 0.86% of all compounds hit somewhere here.

Values run as follows: Vaccinia Venus | VACV mCherry inh
CC(C)c1ccc(Nc2c(-c3ccccc3O)nc3cnccn23)cc1
  -17% | -23%
CCc1ccc(C(=O)CCC(=O)Nc2cccc(S(=O)(=O)N3CCCCC3)c2)cc1
  ? | ?
CCN(CCCNC(=O)c1cc2c(=O)[nH]c3ccccc3c2s1)c1ccccc1
  -15%[7.34 µM] | -10%[7.34 µM]
CCNC(=O)C1CCCN(C(=O)c2cnc3ccccc3n2)CC1 (stereo not drawn)
  -5% | 22%
Cc1c(NC(=O)c2cccc(NC(=O)c3ccco3)c2)cccc1C(=O)O
  12% | 4%
Cc1oc2cc3oc(=O)c(CC(=O)NCc4ccccc4)c(C)c3cc2c1C
  -17% | -16%
Cn1nnc2cc(C(=O)Nc3cccnc3)ccc21
  -7% | -5%
CCOC(=O)N1CCC(NC(=O)c2cccc3c2C(=O)N(CCOC)C3)CC1
  -16% | i
CC1CCCCC1NC(=O)C1CCC(CNS(=O)(=O)c2ccccc2)CC1 (stereo not drawn)
  -5% | -6%
COc1cc2c(cc1OC)C(C1C(=O)CC(C)CC1=O)N(C(=O)CCl)CC2 (stereo not drawn)
  -8% | -12%
O=C(COc1cccnc1[N+](=O)[O-])N1CCc2ccccc21
  -20% | -5%
O=C1c2ccccc2-n2c1nc1ccccc1c2=O
  -17% | ?
CN(C)CCN=Cc1c(O)n(-c2ccc(S(=O)(=O)N3CCOCC3)cc2)c(=O)c2ccccc12
  -17% | -12%
CCOc1ccc2nc(NC(=O)c3cccc(N4C(=O)CCC4=O)c3)sc2c1
  -17% | -23%
Fc1ccc(CNc2ccn3nc(-c4ccccc4)cc3n2)cc1
  -5% | -8%

Reprinted from the part before: 2 entries, followed by the next part.
Values run as follows: Vaccinia Venus | VACV mCherry inh
CCOc1ccc2nc(NC(=O)c3cccc(N4C(=O)CCC4=O)c3)sc2c1
  -17% | -23%
Fc1ccc(CNc2ccn3nc(-c4ccccc4)cc3n2)cc1
  -5% | -8%
O=c1c(Cl)c(NCc2ccc(F)cc2)cnn1C12CC3CC(CC(C3)C1)C2
  -7% | -12%
O=S(=O)([N-]c1nc2ccccc2nc1-[n+]1ccc(-c2ccncc2)cc1)c1ccccc1
  -2% | i
CC(C)/C=C1\CCCCC1N(C)C(=O)NC(C)C (stereo not drawn)
  -10% | .
Cc1cccc2c1-c1sc(C(=O)NCc3ccccc3Cl)cc1CO2
  -1% | -7%
Cc1cc(Cl)ccc1NC(=O)CSc1nc2c(c(=O)[nH]1)CCC2
  -5% | -8%
Cc1ccc(S(=O)(=O)CC(=O)Nc2ccc(S(=O)(=O)Nc3onc(C)c3C)cc2)cc1
  5% | 8%
CCc1ccccc1NC(=O)c1ccc(F)c(S(=O)(=O)N2CCN(c3cccc(Cl)c3)CC2)c1
  -19% | -14%
Cc1ccnc(NC(c2ccccc2F)c2ccc3cccnc3c2O)c1 (stereo not drawn)
  ? | 16µM*
CCN(CC)S(=O)(=O)c1ccc(OC)c(NC(=O)c2ccc(=O)[nH]c2)c1
  -4% | i
CC(=O)C1C(c2cccc(F)c2)NC(=O)NC1(O)C(F)(F)F (stereo not drawn)
  0% | -6%
CCCNC(=O)CCc1c(C)nc2nc(-c3cc(OC)cc(OC)c3)nn2c1C
  -10% | -3%
COC(=O)C1CSc2[nH]c(=O)sc2C1c1ccc(OC)c(OC)c1 (stereo not drawn)
  -7% | .
Cc1ccc(NC(=O)COC(=O)C2CCN(c3ccc(C(F)(F)F)cn3)CC2)cc1C
  -16% | i
CC1CCCC(NC(=O)CCCn2ncn3c(cc4occc43)c2=O)C1C (stereo not drawn)
  -7% | i
CCOc1ccccc1NS(=O)(=O)c1ccc2c(c1)CC(C)N2C(=O)C1CC1 (stereo not drawn)
  -19% | -17%

Further records follow:
Values run as follows: Vaccinia Venus | VACV mCherry inh
Cc1nn(-c2ccccc2)c(-n2cccc2)c1C(=O)N1CCN(c2ccccc2)CC1
  4% | -14%
COC(=O)c1ccc(/C=C/C(=O)OCC(=O)NCc2cccs2)cc1
  -14% | -14%
CNc1nc(SCc2ccccc2Cl)nc2c1CCCC2
  ? | .
Cc1cccc(Oc2ncnc3onc(C)c23)c1C
  -22% | .
COCCn1c(-c2ccc(SC)cc2)nc2c1c(=O)[nH]c(=O)n2CC(C)C
  0% | -8%
CCOCC(=O)Nc1c(C(=O)Nc2ccc3c(c2)OCCO3)oc2ccccc12
  -16% | ?
CCN(N)C(=S)Nc1ccc(F)cc1
  3% | 5%
Cc1nc2c(C(=O)N(C)Cc3ccccc3)c[nH]n2c(=O)c1Cc1ccc(Cl)cc1
  -13% | -15%
CCN(CC(=O)NCc1ccc(Cl)cc1)C(=O)CSCC(=O)Nc1ccc(C)cc1
  -10% | i
COc1ccc(S(=O)(=O)N2CCCC2C(=O)Nc2nc3c(s2)CCCC3)cc1 (stereo not drawn)
  -20% | .
CC1CC1C(=O)Nc1nc(-c2ccccc2)cs1 (stereo not drawn)
  -15% | -6%
CCc1cccc(C)c1Nc1c(-c2cccs2)nc2nc(C)cc(C)n12
  -8% | -4%
CC1(Cc2cc(Cl)ccc2C(F)(F)F)C(=O)Nc2c(Cl)cccc21 (stereo not drawn)
  -7% | 36%[activator]
O=C(Cc1nnc(NC(=O)c2cccc([N+](=O)[O-])c2)s1)NCc1ccccc1
  -12% | i
O=c1cc(-c2ccccc2Cl)oc2c([N+](=O)[O-])c(O)cc(O)c12
  ? | i

Additional compounds
Values run as follows: Vaccinia Venus | VACV mCherry inh
CNC(=S)N1CCC(n2cnc3ccccc32)CC1
  -7% | -16%
CCN(CC)C(=O)c1ncn(Cc2ccccc2)c1C(=O)N(CC)CC
  -4% | i
COc1ccccc1OCCCSc1nc(-c2ccc(C(C)(C)C)cc2)nc2cc(=O)[nH]n12
  -29% | -23%
O=C(c1cc2ccccc2o1)N1CCN(S(=O)(=O)c2ccc(Cl)s2)CC1
  -21% | -28%
CC(=O)c1ccc(N2CCN(CN3C(=O)CC4(CCCC4)C3=O)CC2)c(F)c1
  -4% | -20%
CC(C)(C)NC(=O)C(=O)NNC(=O)c1ccccc1
  -6% | -20%
Cc1cc(=O)c(C(=O)Nc2ccc(N3CCOCC3)cc2N2CCOCC2)nn1-c1ccccc1Cl
  -12% | -20%
Cc1nc2c(O)cccc2cc1CO
  -9% | i
Cc1ccc(OCC(=O)N2CCc3ccccc3C2)c([N+](=O)[O-])n1
  -15% | -14%
O=C(N/N=C1\CC2CC=CC12)c1ccccc1Cl (stereo not drawn)
  -6% | -15%
Cc1ccc(-c2cc(C(=O)N/N=C/c3c(C)nn(C)c3C)c3ccccc3n2)cc1C
  ? | -15%
Cc1noc(NS(=O)(=O)c2ccc(NC(=O)c3cccc(S(=O)(=O)Nc4ccccc4F)c3)cc2)c1C
  -8% | i
Cc1cc(N2CCCC2)ccc1C=C(C#N)C#N
  10% | i
Cc1cccc(N=Nc2c(C)nn(-c3ccccc3)c2N)c1C
  -11% | -24%
O=C(NCc1ccccc1)C1CCC(CNS(=O)(=O)c2cccs2)CC1 (stereo not drawn)
  -9% | -15%

Grouped by structure: those above containing a tert-butyl group
Values run as follows: Vaccinia Venus | VACV mCherry inh
COc1ccccc1OCCCSc1nc(-c2ccc(C(C)(C)C)cc2)nc2cc(=O)[nH]n12
  -29% | -23%
CC(C)(C)NC(=O)C(=O)NNC(=O)c1ccccc1
  -6% | -20%

Continuation.
Values run as follows: Vaccinia Venus | VACV mCherry inh
CCc1cccc(OCCOCCN2CCCC2)c1
  3% | -7%
C[C@H](CO)N1C[C@H](C)[C@@H](CN(C)S(=O)(=O)c2cccs2)Oc2c(NC(=O)CCC(F)(F)F)cccc2C1=O
  -12% | ?
COc1cc(NC(=O)C2CSC3(C)CCC(=O)N23)c(OC)cc1Cl (stereo not drawn)
  -17% | -2%
Cc1nc2c(=O)n(-c3ccc(F)c(Cl)c3)nc(C)c2s1
  -13% | -3%
CCC[C@@H](CN1CCC[C@H]1CN1C(N)=NC[C@@H]1Cc1ccccc1)N1C[C@@H](Cc2ccccc2)N(CCCC2CCCC2)C1=N
  -7% | 0%
C=CCNC(=S)Nc1cccc2[nH]ncc12
  -14% | i
COc1ccccc1NC(=O)CSc1nc(=O)n2cc(C)ccc2n1
  -8% | i
N#CCC(=O)Nc1ccc(C(=O)N2CCN(c3ccccn3)CC2)cc1
  -5% | -5%
COc1cc(NC(=O)CSc2ccc(-c3ccccn3)nn2)cc(OC)c1
  ? | 11µM*
COc1ccc(-c2nnc(SCC(=O)NC3CCCc4ccccc43)n2N)cc1 (stereo not drawn)
  -22% | -4%
O=C(Nc1ccccc1N1CCN(c2ccccc2)CC1)c1ccccc1
  -6% | -10%
N#Cc1c(N)nc(SCC(=O)NCc2ccc3c(c2)OCO3)c(C#N)c1-c1cccs1
  -6% | .
CCN1CC(=O)Nc2cc(S(=O)(=O)N3CCOCC3)ccc21
  2% | -12%
Cc1cc(C)nc(/N=C2\NC(=O)CC(C(=O)O)N2c2ccc(C)c(C)c2)n1 (stereo not drawn)
  -7% | -10%
O=C(NC1CCCC1)c1ccc(Cl)c(S(=O)(=O)N2CCOCC2)c1
  -3% | -15%

Following part
Values run as follows: Vaccinia Venus | VACV mCherry inh
Cc1ccc(C)c(N2CCN(C(=O)c3cn(C)c4ccc(S(=O)(=O)N(C)C)cc4c3=O)CC2)c1
  -24% | ?
O=C(CCN1Cc2ccccc2C1)c1ccc2c(c1)OCCO2
  -9% | -24%
CCCCOC(=O)/C(C#N)=C\c1ccc(-c2ccc(Cl)cc2)o1
  3% | 2%
CN1OC[C@@H]2CN(Cc3ccccc3)[C@H](c3cccc(Oc4ccccc4)c3)C[C@@H]21
  -17% | ?
Nc1sc2c(c1C(=O)NCCc1ccccc1)CCC2
  0% | -14%
CC(NC(=O)Cc1ccc(F)cc1)c1ccccc1 (stereo not drawn)
  ? | ?
O=C(Nc1ccc(Cc2ccncc2)cc1)c1ccc(Cl)c([N+](=O)[O-])c1
  -12% | .
CC1(C(=O)Nc2ccc3c(c2)OCCO3)CN(S(C)(=O)=O)CC(=O)N1CCc1ccccc1F (stereo not drawn)
  -13% | i
COc1cccc(NC(=O)N(C)C[C@H]2Oc3cc(C#Cc4ccncc4)ccc3S(=O)(=O)N([C@H](C)CO)C[C@H]2C)c1
  ? | ?
CSCCC(NS(=O)(=O)c1ccc(C)cc1)C(=O)N1CC=C(c2ccccc2)CC1 (stereo not drawn)
  -18% | -9%
COc1cccc(CNS(=O)(=O)c2ccc3c(c2)C(C(C)C)C(=O)N3)c1 (stereo not drawn)
  5% | -10%
CCCCn1c(N)c(N(Cc2ccccc2OC)C(=O)COc2ccccc2OC)c(=O)[nH]c1=O
  -16% | -21%
CCCCNc1nc(NC)nc(Cl)c1SC
  -17% | -12%
O=C(CCCN1C(=O)/C(=C/c2cccs2)SC1=S)Nc1cccc(O)c1
  ? | i
O=C(NCCc1ccccc1)C1CCC(Cn2c(=O)c3ccccc3n(Cc3cccc(F)c3)c2=O)CC1 (stereo not drawn)
  -12% | i

Carrying on:
Values run as follows: Vaccinia Venus | VACV mCherry inh
O=[N+]([O-])c1ccc(/C=C/c2ccc3ccccc3n2)cc1
  -6% | -14%
CCOC(=O)c1ccc(N2C(=O)c3n[nH]c(-c4cccs4)c3C2c2cccc(OC)c2)cc1 (stereo not drawn)
  -14% | -10%
COc1ccc(CNC(=O)CCSCc2cccc(Cl)c2)cc1
  -12% | i
Cn1cc(S(=O)(=O)NCC2CCCO2)c(=O)n(C)c1=O (stereo not drawn)
  16% | i
COc1cccc(N(C(=O)c2ccn[nH]2)C2(C(=O)Nc3c(C)cccc3C)CCCCC2)c1
  -18% | -7%
Cc1cc(-c2ccc([N+](=O)[O-])cc2)cc(C)n1
  -6% | ?
CCC1CCCCN1C/C=C/c1ccccc1[N+](=O)[O-] (stereo not drawn)
  -4% | -7%
O=C(NCc1nc2ccccc2[nH]1)c1ccc(S(=O)(=O)N2CCCC2)cc1
  -8% | -6%
O=C(CNCc1ccncc1)Nc1cc(S(=O)(=O)N2CCCCC2)ccc1Cl
  -11% | -3%
COc1cc2ccccc2cc1C(=O)Nc1ccccc1N1CCCC1
  -6% | -27%
CC1=C(C(=O)N(C)C)C(c2cccs2)NC(=O)N1 (stereo not drawn)
  -10% | .
CCOc1ccc(CNS(=O)(=O)c2c(C)nc3scc(C)n3c2=O)cc1OC
  5% | -7%
CC(C)(C)NC(=O)c1cccnc1Sc1ccccc1
  -7% | -9%
COc1ccc(-c2[nH]ncc2CN2CCN(Cc3cccs3)CC2)c(F)c1
  -15% | -13%

An excerpt from above in order of number of heavy atoms, ascending.
Values run as follows: Vaccinia Venus | VACV mCherry inh
Cc1cc(-c2ccc([N+](=O)[O-])cc2)cc(C)n1
  -6% | ?
CC1=C(C(=O)N(C)C)C(c2cccs2)NC(=O)N1 (stereo not drawn)
  -10% | .
Cn1cc(S(=O)(=O)NCC2CCCO2)c(=O)n(C)c1=O (stereo not drawn)
  16% | i
O=[N+]([O-])c1ccc(/C=C/c2ccc3ccccc3n2)cc1
  -6% | -14%
COc1ccc(CNC(=O)CCSCc2cccc(Cl)c2)cc1
  -12% | i
O=C(CCCN1C(=O)/C(=C/c2cccs2)SC1=S)Nc1cccc(O)c1
  ? | i
COc1ccc(-c2[nH]ncc2CN2CCN(Cc3cccs3)CC2)c(F)c1
  -15% | -13%
O=C(CNCc1ccncc1)Nc1cc(S(=O)(=O)N2CCCCC2)ccc1Cl
  -11% | -3%
COc1cccc(N(C(=O)c2ccn[nH]2)C2(C(=O)Nc3c(C)cccc3C)CCCCC2)c1
  -18% | -7%
O=C(NCCc1ccccc1)C1CCC(Cn2c(=O)c3ccccc3n(Cc3cccc(F)c3)c2=O)CC1 (stereo not drawn)
  -12% | i
